# HCMV NEC inh = cytomegalovirus nuclear egress complex inhibition. HTRF UL50-UL53 interaction, normalized percent inhibition. hit rate 0.15% among 190,000. inhibition, % (no concentration beside the values);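 active means both replicates at 50% or more, plus weaker picks with an unusually low signal ratio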;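 further: stock transfer was 100 nL into about 20 µL; 0% = negative control wells and 100% = wells with untagged competitor protein; inactives centre near -12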
# GIV Gai3 FP = blocks GIV peptide binding to rat Galpha-i3 | hit rate 0.42% among 210,000 | Galpha-i3/FITC-GIV peptide fluorescence polarization, 90 min; hits give low values; scaled: aluminum fluoride 0%, vehicle 100% | AID 1224905 | percent of control (FP), % (test concentration not listed);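 active means replicate mean at 85% of control or lower, very high polarization wells dropped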;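 further: wells of about 15 µL received 100 nL stock; the first replicate is given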
# Target sequence (P08753 whole entry, looked up): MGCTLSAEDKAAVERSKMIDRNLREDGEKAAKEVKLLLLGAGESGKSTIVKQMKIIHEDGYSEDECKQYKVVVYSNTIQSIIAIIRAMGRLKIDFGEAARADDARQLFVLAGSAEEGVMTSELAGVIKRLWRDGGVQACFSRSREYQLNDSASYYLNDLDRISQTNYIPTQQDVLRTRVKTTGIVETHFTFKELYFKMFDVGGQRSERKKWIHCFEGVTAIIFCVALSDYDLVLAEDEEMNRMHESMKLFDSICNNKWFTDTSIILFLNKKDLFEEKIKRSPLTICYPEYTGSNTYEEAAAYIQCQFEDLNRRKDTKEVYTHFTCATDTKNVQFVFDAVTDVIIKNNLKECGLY
# Sa growth inh = inhibitors of Staphylococcus aureus growth at 42 °C; hit rate 0.53% among 170,000; relative growth, % (no concentration beside the values); S. aureus RN4220 growth, OD600, 20 h; hits give low values;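 active means growth at 42 °C up to 50% and 20 or more points under that at 30 °C, or under 10% at both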;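 further: 300 nL library stock went into each well; scaled to the means of positive and negative controls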
# Sa growth inh second temp = also measured in Sa growth inh; calls as there; relative growth, %; measured here: growth at 30 °C;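 optical density after 20 h as mean of two plates; 100% = untreated growth and lower means inhibition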
# Active calls of the source: *; . = not tested or not shown; & = joins results of further samples.
no.	Structure	Sa growth inh	Sa growth inh second temp	HCMV NEC inh	GIV Gai3 FP
1	O=[N+]([O-])c1c(NCc2ccccc2)cc(N2CCOCC2)c2nonc12	.	.	-28	103
2	Cc1noc(C)c1COc1ccc(C(=O)N2CCOCC2)cc1	84	97	-11	.
3	C=CCc1cccc2cc(C(=O)Nc3cccc(Cl)c3)c(=O)oc12	104	83	-38	103
4	COc1ccc(-n2nc(C(=O)N3CCN(c4cccc(C)c4C)CC3)c3c4ccccc4n(C)c3c2=O)cc1	97	95	7	110
5	Cc1c(C(=O)N=c2sc3ccccc3n2C)sc2nc3n(c(=O)c12)CCC3	104	96	-17	.
6	Cc1ccc(-c2nn(CC(=O)N3CCN(c4ccccc4)CC3)c(=O)c3ccccc23)cc1	.	.	-16	94
7	Cc1noc2ncnc(NCc3ccc(F)cc3)c12	.	.	-1	103
8	CC(=O)Nc1ccc2c(c1)nc(C)n2Cc1ccccc1	112	89	-16	99
9	O=C(/C=C/c1ccccc1)Nc1ccc(Oc2ccc(F)cc2)nc1	123	92	-6	104
10	O=C(O)CN1C(=O)/C(=C2\SC(=Nc3ccc(Br)cc3)NC2=O)c2ccccc21	100	79	-35	124
11	CCOC(=O)c1ccc(N2C(=O)c3n[nH]c(-c4cccs4)c3C2c2ccc(C(C)C)cc2)cc1 (configuration not stated)	94	95	0	96
12	Cc1ccc(-n2c(C)cc(C=C3C(=O)N(C)C(=S)N(C)C3=O)c2C)cc1[N+](=O)[O-]	.	.	6	108
13	COc1ccc(-c2nc3scc(CCNS(=O)(=O)c4c(C)noc4C)n3n2)cc1	104	96	.	96
14	C=CCN1C(=O)CSC1=Nc1ccc(C(=O)O)cc1	95	93	-21	103
15	N#Cc1c(NC(=O)CC(=O)CSc2ncnc3sc4c(c23)CCC4)sc2c1CCCC2	.	.	9	106

# (continued)
no.	Structure	Sa growth inh	Sa growth inh second temp	HCMV NEC inh	GIV Gai3 FP
16	O=C(CSc1oc(-c2ccccc2)nc1S(=O)(=O)c1ccc(Cl)cc1)NC1CCCCC1	87	95	-2	100
17	Cc1cc(NS(=O)(=O)c2ccc(NC(=O)CSc3nnc(-c4ccccn4)n3Cc3ccco3)cc2)nc(C)n1	106	93	-9	104
18	CCC(=O)c1c(C)nc2n(Cc3ccccc3)c3ccccc3n12	88	83	.	104
19	Cc1ccc(S(=O)(=O)N2CCCC(c3nc(-c4ccccc4)no3)C2)cc1 (configuration not stated)	.	.	-30	102
20	N#CC(C#N)=C(N)Nc1cccc(Cl)c1	95	80	-14	101
21	CCCCCCCCN=Cc1sc2ccc(OCC)cc2c1O	.	.	-8	104
22	CCOc1ccc(NS(=O)(=O)c2ccc3nc(-c4ccccc4)[nH]c3c2)cc1	104	84	-14	106
23	CC(C(=O)Nc1ccc2c(c1)OCO2)N1CCN(S(=O)(=O)/C=C/c2ccccc2)CC1 (configuration not stated)	95	101	3	.
24	COc1ccc(NC(=O)CN(c2ccc(C)cc2)S(=O)(=O)c2ccc(OC)cc2)cc1	100	92	.	100
25	COCCCNC(=O)CCC(=O)NNc1nc2ccccc2c2nc(C)nn12	107	92	-17	100
26	CC(C)S(=O)(=O)c1cscc1N1C(=O)c2ccccc2C1=O	89	85	-19	98
27	O=C1CS/C(=N\c2nccs2)N1	77	25	.	199
28	CCN(CC)C(=S)Oc1ccc(C#N)cc1	114	87	-3	102
29	CC(Oc1cccc2c1OC(C)(C)C2)C(=O)N(C)c1ccccc1 (configuration not stated)	109	93	-4	.
30	CCc1ccccc1N(c1nc(-c2ccc(OC)c(OC)c2)no1)c1nc(-c2ccc(OC)c(OC)c2)no1	101	96	-11	99

# Other results.
no.	Structure	Sa growth inh	Sa growth inh second temp	HCMV NEC inh	GIV Gai3 FP
31	CC(=O)N1CCc2cc(C(O)CN(C)Cc3ccccc3)ccc21 (configuration not stated)	83	87	.	104
32	O=C(OCn1nnc2ccccc2c1=O)C(c1ccccc1)c1ccccc1	70	22	.	98
33	CCc1ccc(-n2c(N3CCN(c4ccc(F)cc4)CC3)nc3ccccc3c2=O)cc1	95	92	-37	105
34	O=C(NCc1cccs1)c1ccc(CSc2nc3cccnc3n2Cc2ccccc2F)cc1	129	104	.	101
35	O=C(Nc1cccc2nsnc12)c1nc2ccccc2nc1N1CCCC1	.	.	-37	100
36	COC(=O)CN(c1ccc2c(c1)OCCO2)S(C)(=O)=O	100	98	-2	101
37	Cc1ccc(N=C(C#N)C2=C(O)c3ccccc3C2=O)cc1F	142	83	-22	95
38	CCOC(=O)C1=C(N)OC2=C(C(=O)CC(c3ccccc3)C2)C1c1cccs1 (configuration not stated)	.	.	-4	117
39	Cc1ccc(Cl)cc1NC(=O)CN1C(=O)CCc2ccccc21	117	104	.	106
40	COc1cccc(OCc2nc3ccccc3[nH]2)c1	95	76	-18	102
41	O=C(CSc1nc2ccccc2n1Cc1ccccc1F)NCc1ccccc1	105	92	.	106
42	CCOC(=O)c1nc(Nc2ccc(F)c(Cl)c2)c2c(C)noc2n1	.	.	2	102
43	CC(=O)Nc1cccc2c1Cc1ccccc1-2	110	80	-16	104
44	O=C(NC1CCCCC1)c1noc2c1CCc1ccccc1-2	86	81	-30	98
45	COc1ccc(N2C(=O)/C(=C\c3ccc(Br)cc3)C(=O)NC2=S)cc1	.	.	7	101

# Continuation:
no.	Structure	Sa growth inh	Sa growth inh second temp	HCMV NEC inh	GIV Gai3 FP
46	O=S(=O)(c1ccccc1)c1nc(-c2cccs2)oc1SCc1ccccc1F	94	94	-20	110
47	CCOC(=O)N1CCC(c2[nH][nH]c(=O)c2C)CC1	101	90	-14	104
48	O=c1c2cnn(-c3cccc(Cl)c3)c2ncn1CC1CCCO1 (configuration not stated)	110	102	0	.
49	NNC(=O)c1cccc(S(=O)(=O)Nc2cccc(C(F)(F)F)c2)c1	92	93	-33	.
50	C=CCOc1ccc(C2/C(=C(\O)c3ccc(OC)cc3)C(=O)C(=O)N2CCN2CCNCC2)cc1 (configuration not stated)	92	90	-25	104
51	CCc1ccc(C(=O)c2cn(CC(=O)Nc3ccc4c(c3)OCCO4)c3ccc(F)cc3c2=O)cc1	100	84	-24	104
52	O=C1c2ccccc2O[C@@H](c2ccc(Cl)cc2)[C@@H]1O	83	82	-41	101
53	Cc1cc(C(F)(F)F)cc(-n2cc(C#N)c(N)n2)n1	94	86	-10	100
54	Cc1occc1C(=O)N1CCN(c2ccc(Cl)c(Cl)c2)CC1	91	82	5	110
55	O=C(CCCCCn1c(=O)[nH]c2ccsc2c1=O)NCc1ccccc1	108	94	-5	106
56	COc1cccc(NS(=O)(=O)c2ccc3c(c2)n(C)c(=O)n3C)c1	98	87	-6	98
57	O=S(=O)(Nc1cc(C(F)(F)F)ccc1N1CCc2ccccc2C1)c1cccc2nonc12	87	87	-31	105
58	Nc1cccc2c1C(=O)N(c1ccc(Cl)c(Cl)c1)C2=O	96	79	-17	102
59	Cc1cc(C)cc(NC(=O)c2nnn(Cc3cccc(Br)c3)c2N)c1	109	101	-21	102
60	O=C(NC1CCN(Cc2ccccc2)CC1)c1ccc(Cn2c(=O)c3ccccc3n(Cc3cccc(F)c3)c2=O)cc1	86	94	-4	100

# The listing continues:
no.	Structure	Sa growth inh	Sa growth inh second temp	HCMV NEC inh	GIV Gai3 FP
61	CCN(Cc1ccncc1)Cn1c(=S)oc2ccccc21	88	97	-4	.
62	COc1ccc(Cl)cc1NC(=O)Cn1ncc2c3ccccc3n(Cc3ccccc3)c2c1=O	87	80	2	107
63	COc1ccc(N2CCN(c3ncnc4sc(C(=O)N5CCC(C(N)=O)(N6CCCCC6)CC5)c(C)c34)CC2)cc1	.	.	-9	102
64	COc1ccc(OCc2cccc(C(=O)O)c2)cc1	106	100	2	105
65	CC(C)Cn1c(=O)c(C2=NS(=O)(=O)c3ccccc3N2)c(O)c2ccccc21	93	93	.	101
66	CCOc1cc(/C=C2\SC(=NC)N(C)C2=O)cc(Cl)c1OC(C)=O	.	.	-13	113
67	CCOC(=O)c1cnc(SCC(=O)N2CCCCC2C)nc1N (configuration not stated)	112	88	-30	106
68	COc1ccc(S(=O)(=O)n2nc(C)c(S(=O)(=O)N3CCCC(C)C3)c2C)cc1 (configuration not stated)	.	.	-16	104
69	O=C1CSC(c2ccccc2)N1C1CCCCC1 (configuration not stated)	116	95	.	105
70	CC(=O)c1ccc(N2CCN(S(=O)(=O)c3ccc4c(c3)C(C)(C)C(=O)N4)CC2)cc1	80	87	.	96
71	Brc1cccc(CNCCSc2nnnn2-c2ccccc2)c1	96	77	-37	99
72	Cc1c(Cc2ccccc2)c(-n2ccnc2C)n2c(nc3ccccc32)c1C#N	98	93	-1	109
73	O=C(O)CSCC(=O)N1CCN(Cc2ccc3c(c2)OCO3)CC1	90	86	-18	94
74	CCn1c(CN(c2ccc(F)cc2)S(C)(=O)=O)nnc1SCc1nc2ccccc2c(=O)[nH]1	.	.	-10	102
75	Cc1cc(C(=O)NC2CCN(Cc3c(F)cccc3Cl)CC2)no1	93	90	-5	100

# An excerpt of these results, as labelled records.
[70] CC(=O)c1ccc(N2CCN(S(=O)(=O)c3ccc4c(c3)C(C)(C)C(=O)N4)CC2)cc1
  Sa growth inh = 80	Sa growth inh second temp = 87	HCMV NEC inh = .	GIV Gai3 FP = 96

[71] Brc1cccc(CNCCSc2nnnn2-c2ccccc2)c1
  Sa growth inh = 96	Sa growth inh second temp = 77	HCMV NEC inh = -37	GIV Gai3 FP = 99

# Next section.
no.	Structure	Sa growth inh	Sa growth inh second temp	HCMV NEC inh	GIV Gai3 FP
76	COc1ccc(NC(=O)c2cc(-c3ccco3)nc3ccccc23)cc1Cl	88	89	2	.
77	CN(CC(=O)Nc1ccccc1C(=O)Nc1ccccc1)C1CCS(=O)(=O)C1 (configuration not stated)	101	91	2	.
78	CC(=O)N1CCOc2cc(S(=O)(=O)Nc3cc(C(F)(F)F)ccc3Cl)c(C)cc21	97	104	.	100
79	COC(=O)c1c(C)oc(C)c1S(=O)(=O)N1CCOCC1	115	92	-15	104
80	COC(=O)c1c(NC(=O)CN2CCN(c3ccccc3O)CC2)sc2c1CCC2	118	90	-31	.
81	CC(=O)c1cccc(NC(=O)CSc2nnc3ccc(-c4ccc(F)cc4)nn23)c1	128	87	.	96
82	CC(NC(=O)c1cc(-c2ccc(Cl)cc2)n[nH]1)c1ccc2c(c1)OCCO2 (configuration not stated)	91	60	-35	101
83	CC(C(=O)O)n1cnc2scc(-c3ccc(Cl)cc3)c2c1=O (configuration not stated)	114	93	.	98
84	N#C/C(=C\c1ccco1)c1ccc(Cl)cc1	49*	84*	-9	106
85	CCOc1cccc(-n2c(O)c(/C=C3/C(=O)N(c4ccccc4)N=C3C)c(=O)[nH]c2=S)c1	.	.	8	107
86	CCOc1ccc(-c2cc(C(=O)NCCc3ccc(OC)c(OC)c3)c3c(-c4ccc(F)cc4)[nH]nc3n2)cc1	129	72	.	102
87	CCN1CCCC1CNC(=O)c1ccc2c(c1)sc1nc(-c3cccc(OC)c3)cn12 (configuration not stated)	138	58	.	103
88	O=C(NCCc1ccccc1)N1CCC(N2CCN(Cc3ccc(F)cc3)C(=O)C2=O)CC1	.	.	-9	117
89	COC(=O)C1=C(C)OC(N)=C(C#N)C1C1CCCCC1 (configuration not stated)	.	.	-13	106
90	O=C(C1CC1)N1CCc2cc(Br)cc(S(=O)(=O)NCc3cccs3)c21	89	75	-21	107

# (further entries)
no.	Structure	Sa growth inh	Sa growth inh second temp	HCMV NEC inh	GIV Gai3 FP
91	Cc1ccc(CN2CCc3[nH]c(=S)[nH]c(=O)c3C2)cc1	95	96	12&5	101&100
92	COc1ccc(NC(=O)Cn2c(=O)oc3cc(S(=O)(=O)NC4CCCC4)ccc32)cc1OC	114	67	.	101
93	CCC1CCCCN1CC(C)(C)NS(=O)(=O)c1ccccc1 (configuration not stated)	110	94	7	.
94	Cc1ccc(Nc2c3c(nc4nncn24)CCC3)c(C)c1	86	89	7	104
95	Cc1ccc2[nH]c(CSc3nnc(NC(=O)c4ccccc4C)s3)cc(=O)c2c1	98	88	.	100

# Gathered by group: the compounds so far containing a thiophene ring, fused or not.
no.	Structure	Sa growth inh	Sa growth inh second temp	HCMV NEC inh	GIV Gai3 FP
5	Cc1c(C(=O)N=c2sc3ccccc3n2C)sc2nc3n(c(=O)c12)CCC3	104	96	-17	.
11	CCOC(=O)c1ccc(N2C(=O)c3n[nH]c(-c4cccs4)c3C2c2ccc(C(C)C)cc2)cc1 (configuration not stated)	94	95	0	96
15	N#Cc1c(NC(=O)CC(=O)CSc2ncnc3sc4c(c23)CCC4)sc2c1CCCC2	.	.	9	106
21	CCCCCCCCN=Cc1sc2ccc(OCC)cc2c1O	.	.	-8	104
26	CC(C)S(=O)(=O)c1cscc1N1C(=O)c2ccccc2C1=O	89	85	-19	98
34	O=C(NCc1cccs1)c1ccc(CSc2nc3cccnc3n2Cc2ccccc2F)cc1	129	104	.	101
38	CCOC(=O)C1=C(N)OC2=C(C(=O)CC(c3ccccc3)C2)C1c1cccs1 (configuration not stated)	.	.	-4	117
46	O=S(=O)(c1ccccc1)c1nc(-c2cccs2)oc1SCc1ccccc1F	94	94	-20	110
55	O=C(CCCCCn1c(=O)[nH]c2ccsc2c1=O)NCc1ccccc1	108	94	-5	106
63	COc1ccc(N2CCN(c3ncnc4sc(C(=O)N5CCC(C(N)=O)(N6CCCCC6)CC5)c(C)c34)CC2)cc1	.	.	-9	102
80	COC(=O)c1c(NC(=O)CN2CCN(c3ccccc3O)CC2)sc2c1CCC2	118	90	-31	.
83	CC(C(=O)O)n1cnc2scc(-c3ccc(Cl)cc3)c2c1=O (configuration not stated)	114	93	.	98
90	O=C(C1CC1)N1CCc2cc(Br)cc(S(=O)(=O)NCc3cccs3)c21	89	75	-21	107
